Screening results deposited in PubChem by several laboratories.
Rce1 inhib = yeast Rce1p protease inhibitors, primary screen, biochemical, fluorescence, cell-free homogeneous | CAAX prenyl protease 2 (Saccharomyces cerevisiae (strain ATCC 204508 / S288c)), Q03530 | yeast membranes, quenched prenylated peptide cleavage fluorescence | calls only | actives 0.27% (n = 290,000) | AID 2563, 2010;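 active means fall in fluorescence gain of 50% or more versus controls, with final raw signal at or below 3038400; inconclusive means same 50% fall but final raw signal above 3038400; inactive means fall in fluorescence gain under 50%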;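 further: plate controls were neutral control wells for no effect and wells lacking membranes for full effect; tested at 10 µM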
Target sequence (Q03530 whole entry, looked up): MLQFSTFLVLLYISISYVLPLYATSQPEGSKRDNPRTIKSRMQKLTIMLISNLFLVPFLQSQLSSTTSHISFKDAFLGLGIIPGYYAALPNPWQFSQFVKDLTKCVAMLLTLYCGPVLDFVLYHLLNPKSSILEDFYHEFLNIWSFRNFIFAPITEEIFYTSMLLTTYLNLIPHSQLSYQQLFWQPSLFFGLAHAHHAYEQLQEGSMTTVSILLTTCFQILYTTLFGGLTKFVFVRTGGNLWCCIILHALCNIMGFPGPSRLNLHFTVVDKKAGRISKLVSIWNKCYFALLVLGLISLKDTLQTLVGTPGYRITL
MT1-MMP act inh = blockers of MT1-MMP proenzyme processing, primary screen, HT1080 RFP-PRO-GFP cells, GFP/RFP fluorescence; Matrix metalloproteinase-14 (Homo sapiens), P50281; GFP/RFP ratio fluorescence, overnight; percent of plate control window, DMSO zero; GFP/RFP ratio change, % at 20 µM; actives 0.061% (n = 360,000);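 active means GFP/RFP ratio change of at least 30% with cell ATP level not reduced by more than half and red fluorescence within 50% of control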; further: strong numbers were not always called active
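Test system: HT1080 RFP-PRO-GFP cells; Benchmarks: DMSO and RFP-L50D-GFP cell wells; Timing: cells overnight before dosing, compound overnight, 37 °C, 5% CO2; Compound: one 20 µM compound dose with 1% DMSO; Read-out: GFP/RFP fluorescence ratio.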
Yeast UUG start = modulators of yeast start codon fidelity, primary screen, whole organism, S. cerevisiae, single point, plate reader | S. cerevisiae UUG-firefly luciferase reporter, luminescence/redox ratio | activity score, % at 18.7 µM | actives 0.13% (n = 350,000) | AID 602363, 2012;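 active means replicate mean at a twofold rise or more, about +100% in these data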;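 further: firefly luciferase made from a UUG start codon reports start codon fidelity; reporter light over untreated wells divided by growth signal over untreated wells; some hits fall short of that in this replicate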
Env fusion inh = inhibitors of HIV-1 Env-driven cell-cell fusion, primary screen, HeLa-JRFL effector, CEM21 target cells, luciferase. inhibition, % at 12.3 µM. actives 1.1% (n = 360,000). AID 651610, 2012;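 active means mean replicate inhibition score of at least 50 and every replicate individually at or above 50; inconclusive means only one of the two criteria met; inactive means mean below 50 and not all replicates reaching 50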;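 further: 0% = plate neutral controls and 100% = maraviroc near 300 nM; one replicate is shown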
PABP polyA inh = PABP poly(A) RNA binding inhibitors, primary screen, biochemical, fluorescence polarization, uHTS | inhibition, % at 35 µM | Polyadenylate-binding protein 1 (Homo sapiens), P11940 | actives 1% (n = 290,000);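 active means 50% or more with normal probe brightness, or confirmed in later tests; inconclusive means above 50% with abnormal brightness, or retests that disagree; inactive means below 50% or failed in later tests; about a fifth of its hits are not listed in these tables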;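 further: calls also rest on retests at 20 µM and on dose response follow-up; controls were probe without protein and protein plus probe with vehicle; some compounds called inactive have numbers as strong as hits; many hits fall short of the cut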
eIF4H inh = human eIF4H binding inhibitors, primary screen, translation initiation inhibitor project, biochemical, uHTS, fluorescence polarization. Eukaryotic translation initiation factor 4H (Homo sapiens), Q15056. eIF4H fluorescence polarization binding assay. inhibition, % at 35 µM. actives 0.94% (n = 290,000). AID 2012, 2009;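 active means 50% or more with normal probe brightness, or confirmed in later tests; inconclusive means above 50% with abnormal brightness, or retests that disagree; inactive means below 50% or failed in later tests; about a fifth of its hits are not listed in these tables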;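 further: calls also rest on retests at 20 µM and on dose response follow-up; 0% = protein and probe with vehicle and 100% = probe without protein; strong numbers were not always called active; many hits fall short of the cut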
CSC inhib = cancer stem cell viability inhibitors, primary screen, luminescence | cancer stem cell-like cells viability | inhibition, % at 7.5 µM | actives 1.1% (n = 300,000);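 active means mean at 75% or more and at least half the replicates too; inconclusive means mean and replicates disagree; tested in HMLE shEcad cells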;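 further: 0% = median of negative and 100% = median of positive control wells; the first replicate is given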
MT1-MMP act inh RFP = second read-out of MT1-MMP act inh, no call of its own (marks repeat the call); RFP signal change, %; measured here: RFP expression control read;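 0 = vehicle wells; hits needed this value within 50% of zero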
* marks the source's active call; other numbers are inactive results; i = inactive; u = inconclusive; x = not tested or not shown.

SMILES	Rce1 inhib	MT1-MMP act inh	MT1-MMP act inh RFP	Yeast UUG start	Env fusion inh	PABP polyA inh	eIF4H inh	CSC inhib
CCn1cc(C(=O)O)c(=O)c2cc(F)c(N3CCN(S(=O)(=O)c4ccc5c(c4)OCCO5)CC3)cc21	i	-1	-9	x	17	-9	19	-25
CC(=O)NCCCc1nc2ccccc2n1Cc1ccc(C)cc1	i	-1	-3	-3	x	-6	-4	-8
C[C@H]1COC(=O)[C@H](CC(=O)OC(C)(C)C)C/C=C\C[C@H](CC(=O)N(CCO)Cc2ccccc2)C(=O)N1	x	-1	0	16	-13	x	x	-23
NC(=O)c1ccsc1NC(=O)C1CCCN1S(=O)(=O)c1ccc(Cl)cc1 (configuration not stated)	i	0	-2	-3	-59	-6	3	7
COc1cc(C(=O)NC2CCCc3c2cnn3-c2ccccc2F)cc(OC)c1OC (configuration not stated)	i	3	-26	0	4	1	3	-10
Cc1nn(Cc2ccc([N+](=O)[O-])cc2)c(=O)n1-c1ccc(Cl)cc1	i	0	-3	-12	-2	-4	-5	7
Cc1cc(C)cc(NC(=O)CC2NCCNC2=O)c1 (configuration not stated)	i	2	5	11	-41	-4	0	-7
CCOC(=O)c1c(N)nn(C(=O)c2ccccc2)c1-c1ccccc1	i	-1	-5	-10	-11	2	-9	12
CC(=O)N1C[C@@H](CO)[C@@H](N(C)C(=O)C(C)(C)C)C[C@H]1c1ccccc1	x	4	12	4	-19	x	x	x
O=c1c(Cc2c(F)cccc2Cl)c(O)ccn1CCCn1ccnc1	i	-2	1	x	-11	-16	-11	-12
CCOC(=O)N1CCN(C(=O)CCN2C(=O)COc3ccc(C)cc32)CC1	x	-4	1	8	-91	0	-6	3
Cc1c(-c2ccccn2)c(=O)[nH]n1-c1ccc(F)cc1	i	2	7	x	-41	-5	-1	-4
Cn1c(CN2CCCCC2)c(C#N)c2ccccc21	i	-6	0	-4	x	3	5	-15
C/C(=N\NC(=O)c1ccc(NS(=O)(=O)c2cccs2)cc1)c1ccncc1	i	-1	-1	-17	-14	5	-1	-3
CC(=O)C(=Cc1ccc(O)cc1)C(C)=O	i	0	2	x	11	2	-7	1
CS(=O)(=O)n1nc(C(=O)N2CCOCC2)nc1N	i	1	0	x	-4	2	-3	-7
Cc1ccccc1OCC(=O)NCCS(=O)(=O)N1CCN(c2ccc(F)cc2)CC1	i	-1	2	-7	-4	x	x	-4
Cc1ccc(NS(=O)(=O)c2ccc(C(=O)NNC(=O)c3ccccc3O)cc2)cc1	i	5	-2	x	7	x	x	28
COc1ccc2[nH]c3c(=O)n(CCCCC(=O)NCCC(C)C)c(=S)[nH]c3c2c1	i	-5	1	x	1	2	2	x
Cc1cccc(C2NC(=O)c3c(sc(C)c3C)N2)c1O (configuration not stated)	i	-5	5	x	x	2	-3	3
O=C1CCC(=O)N1c1ccc(S(=O)(=O)N2CCCC2)cc1	i	1	7	-28	-6	11	8	-6
Cc1cc([N+](=O)[O-])ccc1NC(=O)Nc1ccc(F)cc1F	i	-13	-30	x	5	11	-3	23
Cc1ccc(N2CC(C(=O)N3CCOCC3)CC2=O)cc1Cl (configuration not stated)	i	1	5	-24	-3	2	6	30
C=CCNC(=O)NC(=S)c1ccccc1	i	1	5	-18	-27	31	-4	-6
COCCC1CCCCN1Cc1cn(-c2ccccc2)nc1-c1ccc2c(c1)OCO2 (configuration not stated)	i	3	1	x	49	-4	4	-8
O=S1(=O)N=C(N2CCOCC2)c2ccccc21	i	0	-1	-10	x	12	2	11
CCOP(=O)(OCC)c1nc(-c2cccc3ccccc23)oc1NCCc1ccc(OC)cc1	i	-22	-22	13	63*	1	-3	26
COc1ccc(CCN2C(=O)CS/C2=N\NC(=O)c2ccc(C(C)(C)C)cc2)cc1OC	i	3	-10	-2	24	-3	-6	0
Cc1ccc(CCNC(=O)CN2C(=O)COc3ccc(S(=O)(=O)N4CCC(C)CC4)cc32)cc1	i	-1	-5	-6	14	x	x	1
O=C(c1cc2cc([N+](=O)[O-])ccc2oc1=O)N1CCOCC1	i	4	4	x	-12	0	0	2
Cc1cccc2c1[nH]c1nc(N/N=C\c3ccco3)nnc12	i	x	x	x	-38	0	2	2
COc1ccccc1CNC(=O)c1ccc(NC(=O)CC2SC(N3CCCC3)=NC2=O)cc1 (configuration not stated)	x	-3	-5	x	-5	x	x	-23
CCOc1ccc(NC(=O)c2ccccc2NC(=O)CN2CCCCCC2)cc1	x	3	3	1	0	x	x	x
COc1cccc(NC(=O)c2oc3ccccc3c2NC(=O)c2ccc3c(c2)OCO3)c1	i	0	-6	-13	-50	-13	-6	22
COc1cc(/C=C/C(=O)N(C)c2ccccc2C(=O)O)cc(OC)c1OC	i	3	4	-16	-34	7	0	8
O=C(OCC(=O)N(CCc1ccccc1)Cc1ccccc1)c1cccc(S(=O)(=O)N2CCOCC2)c1	x	-3	-8	-7	-7	x	x	x
COc1ccccc1NC(=O)NNC(=O)C(C)Oc1ccc2ccccc2c1 (configuration not stated)	i	3	0	9	5	-4	0	-6
COc1ccccc1N1CCN(c2nnc(-c3ccc(F)cc3)c3ccccc23)CC1	i	-5	-23	5	x	3	-8	x
COC(=O)c1cc(C(=O)Nc2nnc(CC(C)(C)C)s2)cc([N+](=O)[O-])c1	i	2	0	-4	5	0	-9	-12
Cc1ccccc1-c1nc(CS(=O)(=O)CC(=O)NC2CCCC2)c(C)o1	i	0	-2	-1	2	11	-6	-1
O=c1c2[nH]cnc2n(-c2ccc(F)cc2)c(=O)n1Cc1ccccc1	i	0	1	-18	5	0	3	-9
CCOC(=O)c1[nH]c2ccccc2c1NC(=S)Nc1cc(C)ccc1C	i	-2	2	-29	9	9	6	-8
CCOC(=O)C1=C(C(C)=O)C(c2cccnc2)C(C#N)=C(N)O1 (configuration not stated)	i	-4	5	x	x	72*	55*	-11
CCC1(c2ccc(F)cc2)NC(=O)N(CC(=O)N2CC(=O)Nc3ccccc32)C1=O (configuration not stated)	i	-3	0	-2	-3	x	x	-14
Cc1cc(Cl)ccc1OCC(=O)N1CCN(c2ncccn2)CC1	i	-2	-2	x	3	13	8	-6
Cn1c(=O)c2[nH]c(CNCc3ccccc3Cl)nc2n(C)c1=O	i	-9	-1	-19	x	7	-5	4
Cc1c(C(C)C)c(=O)n(-c2ccc(S(=O)(=O)NC3CCCCC3)cc2)n1C	i	3	-22	x	27	-4	4	-15
CCOC(=O)c1c(C)[nH]c(C)c1C(=O)COC(=O)c1ccc(S(=O)(=O)N(CC)CC)cc1	i	7	-12	2	u	6	5	-7
COCCCNS(=O)(=O)c1ccc(OC)c(Cl)c1Cl	i	0	0	-7	x	-2	-7	-8
Cc1ccc(OCc2nnc(SCc3ccc(C#N)cc3)n2-c2ccc(C)cc2)cc1	i	-6	-12	-20	65*	2	-8	-1
CCOC(=O)c1ccc(N2C=C(C(=O)OC)C(c3cccc(O)c3)C(C(=O)OC)=C2)cc1	i	-10	-7	x	9	4	-4	-5
CCCc1ccc(OCc2ccc(C(=O)N3CCSCC3)o2)cc1	i	-1	-12	-10	-50	1	1	-16
COc1cc(CC(=O)O)ccc1OCc1ccccc1	i	-4	-3	-9	-5	5	4	10
CCOC(=O)c1c(NC(=O)CSc2nnc(C)s2)sc2c1CCN(C)C2	i	-35	1	-11	x	-26	3	-8
Cc1ccc(NC(=O)c2cc(S(=O)(=O)Nc3ccc(C)cc3)cs2)cc1	i	-1	-14	-10	x	x	x	55
Cc1ccc(CNC(=O)C2CC(c3ccccc3F)=NO2)cc1 (configuration not stated)	i	2	2	-7	-46	16	-4	-6
COc1ccc(C(=O)NC(=C(Cl)Cl)S(=O)(=O)c2ccc(C)cc2)cc1	i	-4	4	1	-8	5	-4	3
CCN1CCc2nc(N)sc2C1	i	-1	2	x	-9	11	-5	-10
CCCS(=O)(=O)c1c(S(=O)(=O)CCC)c2c(N)cccn2c1C(=O)OC	i	-27	8	x	-9	u	u	-12
CC1=CC(=O)c2c(O)ccc(O)c2C1=O	x	x	x	x	x	111*	112*	1

Given as labelled records: three of the compounds above.
O=c1c(Cc2c(F)cccc2Cl)c(O)ccn1CCCn1ccnc1
  Rce1 inhib: i | MT1-MMP act inh: -2 | MT1-MMP act inh RFP: 1 | Yeast UUG start: x | Env fusion inh: -11 | PABP polyA inh: -16 | eIF4H inh: -11 | CSC inhib: -12
CCOC(=O)N1CCN(C(=O)CCN2C(=O)COc3ccc(C)cc32)CC1
  Rce1 inhib: x | MT1-MMP act inh: -4 | MT1-MMP act inh RFP: 1 | Yeast UUG start: 8 | Env fusion inh: -91 | PABP polyA inh: 0 | eIF4H inh: -6 | CSC inhib: 3
Cc1c(-c2ccccn2)c(=O)[nH]n1-c1ccc(F)cc1
  Rce1 inhib: i | MT1-MMP act inh: 2 | MT1-MMP act inh RFP: 7 | Yeast UUG start: x | Env fusion inh: -41 | PABP polyA inh: -5 | eIF4H inh: -1 | CSC inhib: -4

Continuation.
SMILES	Rce1 inhib	MT1-MMP act inh	MT1-MMP act inh RFP	Yeast UUG start	Env fusion inh	PABP polyA inh	eIF4H inh	CSC inhib
Cc1cccc(Nc2ccccc2C(=O)NCc2ccco2)c1C	i	-2	3	-5	x	-4	-1	-11
O=C(Nc1sc2c(c1C(=O)N1CCOCC1)CCCCC2)c1cccnc1	i	-2	-1	-11	11	-9	-7	-1
CCc1ccc(N2CC(C(=O)OCc3csc(CC(=O)Nc4ccccc4C)n3)CC2=O)cc1 (configuration not stated)	x	-1	-3	2	2	x	x	-19
CCCCC(=O)Nc1nn(CC(C)C)c2nc3ccccc3cc12	i	-7	-6	-10	-3	19	2	-2
CN(CC(=O)NCCCc1ccccc1)Cc1ccc(Br)cc1	i	5	7	-19	10	9	0	7
O=C1/C(=C\c2c(NCCOCCO)nc3ccccn3c2=O)SC(=S)N1Cc1ccco1	i	-27	54	0	5	u	u	x
COc1ccc(CCNC(=O)c2cccnc2)cc1	i	0	0	-13	x	-11	-4	-2
COc1ccc(C(=O)NNC2=NS(=O)(=O)c3ccccc32)cc1OC	i	1	9	-6	-9	-9	0	2
COc1ccc(S(=O)(=O)N2CCN(Cc3ccccc3)CC2)c(C)c1	i	-2	-2	2	11	-1	-3	-11
FC(F)Oc1ccc(NC(=S)NC2CCCCCCC2)cc1	i	-1	-5	-27	-7	-10	2	x
CC(=O)Nc1ccc(S(=O)(=O)Nc2nc3ccccc3nc2Nc2ccc(O)c(C(=O)O)c2)cc1	i	-12	8	-13	2	16	17	-4
O=C(Nc1ccccc1)NC1(C(=O)N2CCN(c3ncccn3)CC2)CCCCC1	i	-6	1	4	-107	-2	-2	x
O=C(c1cccs1)N1CCC(C(=O)N2CCN(Cc3ccc4c(c3)OCO4)CC2)CC1	i	-1	3	x	-4	-2	12	-5
Cc1c(OC(C)C(=O)NCC2CCC(C(=O)O)CC2)ccc2c3c(c(=O)oc12)CCCC3 (configuration not stated)	i	-2	-4	-22	1	7	0	-5
COc1ccc2cc(CN(Cc3cccnc3)S(=O)(=O)c3ccccc3)c(=O)[nH]c2c1	i	-2	-5	x	x	6	-7	-7
COc1ccc(NS(=O)(=O)c2ccc3c(c2)NC(=O)CO3)cc1	i	-4	-3	x	-2	1	-4	-15
COC(=O)c1ccc(N/C=C\C(=O)c2ccc3c(c2)OCO3)cc1	i	7	2	x	-33	16	-11	4

Not a hit list (roughly 2.9% active in at least one column).
